Screening data from PubChem.
T cruzi inh – inhibitors of intracellular T. cruzi growth, primary screen, luminescence, NIH3T3 host cells; T. cruzi beta-gal in NIH3T3, 90 h; inhibition, % (test concentration not listed); hit rate 1.4% among 300,000;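 active means mean inhibition across valid replicates above about 55%, limit read from the data; inconclusive means mean below that limit but half or more replicates reach it; inactive means mean below it, under half of replicates reach it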;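 further: signal also drops with host cell toxicity which is not excluded here; 0% = plate median of DMSO wells and 100% = zero luminescence signal; higher percent means less beta-gal luminescence so fewer parasites; stock transfer was 50 nL into about 50 µL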
ALR inh – inhibitors of human ALR sulfhydryl oxidase, primary screen, biochemical, H2O2 detection, HRP-luminol luminescence, single point | FAD-linked sulfhydryl oxidase ALR (Homo sapiens), P55789 | purified ALR, DTT oxidation | inhibition, % (no concentration beside the values) | hit rate 3.8% among 290,000;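 active means mean and each replicate at 75% or more; inconclusive means only one of the two met; inactive means neither met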;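 further: stock transfer was 7.5 nL into about 7.5 µL; 0% = neutral wells and 100% = wells with inactivated enzyme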
Target sequence (P55789 whole entry, looked up): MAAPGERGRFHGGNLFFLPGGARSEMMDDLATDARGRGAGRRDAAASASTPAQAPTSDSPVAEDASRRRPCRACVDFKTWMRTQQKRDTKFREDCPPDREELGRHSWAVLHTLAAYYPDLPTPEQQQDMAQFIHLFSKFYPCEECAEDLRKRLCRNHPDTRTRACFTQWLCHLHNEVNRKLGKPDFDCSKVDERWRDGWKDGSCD
Bfl-1 A1 inh – caspase 3/7 activation in MEF A1-2A-BIM cells, primary screen, A1 inhibitor project, cell-based, luminescence, HTS; Caspase-Glo 3/7 luminescence, 3 h; percent of clofoctol response, vehicle zero; caspase activation, % (concentration not given with the values); hit rate 0.066% among 330,000; AID 2462, 2010;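 active means over half of replicate activation scores above 10%, or exactly half above 10 with the replicate mean above 10; inconclusive means replicate mean below 10 yet half the replicates above 10; inactive means over half of replicates below 10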;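 further: wells of about 30 µL received 50 nL stock; many hits fall short of the cut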
Ecoli rRNA inh – reduced GFP signal of wild-type E. coli, primary screen, bacterial rRNA inhibitor project, GFP/RFP fluorescence, OD600, single point | AID 720706, 2013 | hit rate 1.6% among 350,000 | E. coli WT GFP vs humanized-ribosome RFP mutants, 24 h; active compounds read low; DMSO median 0, no signal -100 | GFP signal change (wild-type ribosome), % (concentration not given with the values);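 active means significant combined selectivity score with lowered wild-type GFP, culture density cut under 30%, mutant RFP and density less affected; inactive means any of these conditions unmet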; further: one replicate is shown; some compounds called inactive have numbers as strong as hits
B2AR ag – beta2AR agonists driving receptor internalization, primary screen, cell-based, FAP fluorogen, flow cytometry; Am2.2-beta2AR cells; reference of the scale not given here; response, % (no concentration beside the values); hit rate 0.43% among 340,000;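 active means response above a set limit, near 3 SD of response in nonfluorescent compounds, cut at about 42% in these data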;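 further: stock transfer was 100 nL into about 11 µL; a reference agonist was the positive control; negative values mostly stem from fluorescent compounds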
Target sequence (P07550 whole entry, looked up): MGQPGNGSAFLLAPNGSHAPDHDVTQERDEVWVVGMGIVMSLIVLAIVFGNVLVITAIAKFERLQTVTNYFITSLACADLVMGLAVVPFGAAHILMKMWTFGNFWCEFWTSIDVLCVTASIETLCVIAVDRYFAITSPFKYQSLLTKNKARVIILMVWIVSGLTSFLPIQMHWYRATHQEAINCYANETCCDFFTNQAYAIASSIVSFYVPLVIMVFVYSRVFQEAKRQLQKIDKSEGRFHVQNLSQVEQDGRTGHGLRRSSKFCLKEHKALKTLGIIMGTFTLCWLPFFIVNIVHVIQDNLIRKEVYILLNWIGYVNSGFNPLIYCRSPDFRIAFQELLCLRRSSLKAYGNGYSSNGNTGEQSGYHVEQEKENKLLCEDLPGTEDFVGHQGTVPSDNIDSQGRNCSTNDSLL
Beta apoptosis – inhibitors of cytokine-induced beta cell apoptosis, primary screen, luminescence | INS-1E cytokine-induced death, ATP luminescence, 48 h; percent of positive-control rescue, neutral wells zero | protection from apoptosis, % (test concentration not listed) | hit rate 0.8% among 300,000;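 active means all replicates at 75% or more, or half of them and the mean; inconclusive means half reach 75% but not the mean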;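 further: 0% = cytokine-treated negative control wells and 100% = positive control rescue; higher means more ATP so stronger rescue from cytokine killing; wells of about 40 µL received 100 nL stock; the first replicate is given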
LANA-H2B inh – blockers of LANA interaction with H2A/H2B – biochemical, FP readout, HTS, primary screen; cell-free LANA-H2A/H2B peptide, fluorescence polarization; inhibition, % (concentration not given with the values); hit rate 0.6% among 320,000; Protein LANA1 (Human herpesvirus 8 type P (isolate GK18)), Q9QR71; AID 2629, 2010; in the data active means inhibition mostly above about 10%, no sharp cut-off; inactive means mostly below about 6.7%;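 further: stock transfer was 7.5 nL into about 10 µL; 0% = median of vehicle wells and 100% = median of positive control wells; one replicate is shown; the record names a cut of 25% in any replicate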
Calb FLC – C. albicans growth inhibition with fluconazole, primary screen, CaCi-2 strain, Alamar Blue fluorescence. C. albicans CaCi-2 (fluconazole-resistant clinical isolate) + fluconazole, 48 h. hit rate 0.57% among 300,000. AID 1979, 2009. growth inhibition, % (concentration not given with the values);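 active means most replicates above 75%; inconclusive means exactly half above 75%; inactive means most below 75%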;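 further: all wells also contain fluconazole at 8 µg/ml as a sub-toxic cotreatment; 0% = median of DMSO wells and 100% = median of geldanamycin control wells; wells of about 8 µL received 7.5 nL stock; the first replicate is given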
Ecoli rRNA inh OD600 – recorded beside Ecoli rRNA inh, whose call it bears; OD600 change, %; measured here: OD600 growth;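 optical density of the mix in the first replicate; 0 = DMSO median and -100 = no signal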
Ecoli rRNA inh RFP – also measured in Ecoli rRNA inh; calls as there; RFP signal change, %; measured here: RFP humanized mutant strains;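 first replicate; 0 = DMSO median and -100 = no signal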
Starred values were filed as active, the others as inactive; ? = inconclusive; nt = not tested or not shown; & = joins results of further samples. Not all compounds are listed, so the mix of outcomes need not match the whole.

SMILES	T cruzi inh	ALR inh	Bfl-1 A1 inh	Ecoli rRNA inh	Ecoli rRNA inh OD600	Ecoli rRNA inh RFP	B2AR ag	Beta apoptosis	LANA-H2B inh	Calb FLC
O=C(CCCn1c(SCc2cc(=O)n3cc(Cl)ccc3n2)nc2ccccc2c1=O)NCC1CCCO1 (centres undefined)	-7	-1	0.1	3	0	-5.7	2	-11	-5.3	-4
CCOc1ccc(CCN2C(=O)c3ccc(C(=O)O)cc3C2=O)cc1OCC	-6	-1	-0.1	-10	1	-2.3	-2	-2	1.5	7
CCN1CCN(C/C(C)=C/c2ccccc2)CC1	14	-9	-3.5	-6	-1	1.0	-2	-10	3.2	0
COc1ccc(OC)c(NC(=O)c2cc(S(=O)(=O)N(C)C)ccc2N2CCCC2)c1	14	nt	-0.4	-4	-2	0.5	-8	nt	-1.2	0
COc1ccc(-c2nnn(CC(=O)N(Cc3ccccc3Cl)C(C(=O)NCC3CCCO3)c3ccco3)n2)cc1 (centres undefined)	23	-23	0.9	nt	nt	nt	4	4	2.0	2
COc1cc(-c2cc(C(=O)NCc3ccco3)c3ccccc3n2)cc(OC)c1OC	-9	2	2.7	-6	-16	2.8	11	nt	-6.4	29
CN(CCc1ccccn1)C(=O)c1cccnc1Oc1ccc(Cl)cc1	4	-3	0.0	10	8	1.3	1	nt	-1.9	-5
CCC(=O)Nc1cc(=O)[nH]c2ncnn12	0	-17	1.0	nt	nt	nt	11	2	8.6	?
COc1cc(Cl)c(C)cc1NC(C)C(=O)Nc1cc(C(F)(F)F)ccc1N1CCOCC1 (centres undefined)	8	-3	-1.5	nt	nt	nt	3	0	-1.7	3
Cn1nc(C(=O)Nc2ccc(Br)cc2)cc1C(=O)Nc1ccc(Br)cc1	-4	-12	1.4	10	-1	14	1	-1	-2.6	-3
O=C(/C=C/c1ccc(Cl)cc1Cl)OCC(=O)N1CCCC1	nt	nt	-0.7	-11	-25	-3.2	-1	0	2.1	nt
COc1cc(/C=N/Nc2nc(=O)[nH]nc2C)ccc1O	-17	100*	-2.1	8	8	-1.6	-7	0	-4.0	4
O=C(NNC(=S)Nc1ccccc1Cl)c1ccccc1Br	-22	?	1.2	-48	-64	-5.7	4	15	-0.8	24
CCOC(=O)CSc1nc(N2CCOCC2)c2c(c1C#N)CC(C)(C)N(C)C2	25	100*	-0.1	nt	nt	nt	0	-6	15*	-1
CCOC(=O)c1cccc(NC(=O)c2cc3ccccc3o2)c1	-19	1	-0.1	-19	-34	0.6	8	-6	-5.4	2
COC(=O)Cn1cccc1C(=O)c1ccccc1	nt	-3	2.7	nt	nt	nt	-4	-2	-2.9	0
Cc1cc(Cl)ccc1NC(=S)NCCCN1CCCC1=O	-15	6	-0.2	-3	-6	-1.4	11	-7	-3.1	-10
CS(=O)(=O)N1CCN(C(=O)CSc2ccccc2)CC1	-2	2	1.6	5	6	0.3	-1	nt	-3.9	2
Cc1nc2ccc(NS(=O)(=O)c3ccc(F)c(F)c3F)cc2s1	nt	12	-0.4	-5	-14	0.4	-3	-1	-2.4	nt
COc1ccc([C@H]2Cc3cccc(O)c3C(=O)O2)cc1O	nt	-4	-2.3	-13	-13	-20	7	1	1.8	nt
CC(C)(C)NC(=O)/C(=C\c1cccnc1)NC(=O)c1ccco1	-5	-3	0.1	16	6	-1.4	-7	0	-1.3	-2
O=C(CCN1C(=O)c2ccccc2C1=O)Nc1ccc(-c2nc3ccccc3s2)cc1	-10	-4	-8.2	6	6	2.0	4	11	4.0	-1
CCN(CC1COc2ccccc2O1)C(=O)c1ccc(Cl)c(S(=O)(=O)N2CC(C)OC(C)C2)c1 (centres undefined)	26	-62	0.4	-1	1	-2.7	18	0	-3.5	-3
Nn1cnnc1N/N=C/c1ccc(Cl)c([N+](=O)[O-])c1	8	0	-0.1	-15	-3	-2.4	-2	5	-2.7	-4
CCCSc1ccc(C(=O)Nc2ccc(F)cc2F)cn1	-6	-5	1.1	1	13	5.8	5	0	-3.7	-20
COc1ccc(NC(=S)Nc2cccc([N+](=O)[O-])c2)cc1	-3	8	-0.9	nt	nt	nt	9	-5	-2.9	6
COc1ccc(Cl)cc1NC(=O)c1ccoc1C	12	9	-0.3	nt	nt	nt	5	4	2.0	-9
Cc1cc(=O)nc2c3ccccc3n(CC(=O)Nc3ccccc3Br)n12	12	-1	0.9	6	7	-8.4	-5	-4	-4.1	-8
CCCCn1c(N)c(N(Cc2ccccc2OC)C(=O)C(C)Oc2ccc(Cl)cc2)c(=O)[nH]c1=O (centres undefined)	-7	0	0.6	4	4	-0.1	-2	-4	-4.1	-4
CC(C)(C)NC(=O)C(=O)N/N=C/c1cccs1	-13	-2	-0.5	nt	nt	nt	2	1	-3.5	-2
CN(C)CCNC(=O)C(=O)Nc1cc2c3c(c1)CCN3C(=O)CC2	-4	6	0.6	2	6	-6.4	-4	2	17*	4
Cc1ccc(NC(=O)CSc2nnc(Cn3cnc4ccccc43)o2)cc1	-10	0	0.3	nt	nt	nt	-1	-1	-2.7	-10
O=C(NCc1ccccc1F)C1CCCN1S(=O)(=O)c1ccc(Cl)cc1 (centres undefined)	7	-9	-0.3	-3	11	1.7	16	-5	5.8	3
O=C(COC(=O)c1ccc(Br)c(S(=O)(=O)N2CCOCC2)c1)NC1CC1	nt	-1	1.0	6	9	-0.2	-2	-4	-1.3	nt
COc1ccc(CNC(=O)[C@]2(C)CCC[C@@]3(C)C4CC[C@@]5(C)C[C@]4(CCC32)CC5=O)cc1 (some centres undefined)	nt	7	0.5	-16	-24	6.2	9	0	6.2	nt
C[C@@H]1CN([C@@H](C)CO)C(=O)c2cc(NC(=O)C3CC3)ccc2O[C@H]1CN(C)C	nt	2	0.3	1&19	17&14	-0.1&15	-2	1	-3.0	nt
Cc1ccc2c(c1)cc1c(=O)n(CC(=O)NCc3ccccn3)nc(C)n12	-8	-4	0.3	nt	nt	nt	-8	-2	-1.8	19
CCN1CCN(C(=O)c2cc3ccc(OC)cc3[nH]2)CC1	4	-10	-1.9	2	15	-3.4	1	-7	-3.3	-6
O=C(COc1ccccc1)NC1C(=O)N2C(C(=O)O)=C(Cl)CSC12 (centres undefined)	-26	nt	-1.2	7	8	-0.2	-15	1	-0.1	-1
O=S1(=O)C=C(N2CCCCC2)c2ccccc21	8	15	-0.2	nt	nt	nt	-3	-1	4.9	-9
Cc1ccc(C)c2[nH]c(=O)c(CCNC(=O)C(C)(C)C)cc12	-14	3	0.1	8	2	3.6	2	2	0.8	5
COc1ccc(NC(=S)Nc2cccc(C)n2)cc1	nt	-11	0.6	-4	-1	-1.1	-9	0	-2.7	-1
CCn1c(SCC(=O)NCc2cccs2)nnc1-c1ccncc1	8	-7	0.7	8	3	-2.8	-3	-6	0.9	-17
CC(C)Cn1c(-c2ccccc2)nc2ccccc2c1=O	14	-2	1.4	nt	nt	nt	-13	1	1.4	27
O=C(O)CCC(=O)CCC(=O)c1ccccc1	11	4	-0.1	nt	nt	nt	0	-2	3.4	-21
CCN1C=CC(=C2C(=O)c3ccccc3C2=O)C=C1	-11	-9	-0.7	nt	nt	nt	-5	21	-3.1	2
O=C(COc1cccc([N+](=O)[O-])c1)NN1C(=O)c2ccccc2C1=O	-24	nt	1.6	20	2	0.2	-3	0	2.5	-5
COc1ccc(Nc2ccc(Nc3ccc(OC)cc3)nn2)cc1	2	-11	-0.7	-3	2	6.9	11	4	-3.4	?
COc1ccc(C)cc1S(=O)(=O)NCC(c1ccc2c(c1)OCO2)N1CCN(C)CC1 (centres undefined)	-12	1	0.2	7	10	-1.9	0	1	10	1
C=CCn1c(CCNC(=O)c2cccs2)nnc1SCC(=O)c1ccc(Br)cc1	9	10	0.1	nt	nt	nt	98*	nt	-4.3	-28
Cc1cc(C(=O)N/N=C/c2ccccc2)c(C)o1	2	3	-8.7	-2	2	-0.9	-15	9	-0.2	5
COc1ccc(NC(=O)COC(=O)CCc2ccc(S(=O)(=O)N3CCOCC3)cc2)cc1OC	nt	-4	-1.9	-3	0	1.0	-4	-2	-0.9	nt
c1ccc(-c2nc(-c3ccncc3)no2)cc1	19	-20	-0.3	nt	nt	nt	-1	0	-3.1	-39
COCCn1ccc2c(OCC(=O)NCCc3ccc(OC)c(OC)c3)cccc2c1=O	4	-6	0.1	2	1	-2.2	13	nt	5.4	1
Cc1ccc(S(=O)(=O)N2[C@@H](c3ccc(F)cc3)C(C(=O)O)=CC[C@H]2c2cccc(Cl)c2)cc1	nt	34	-0.8	-1	4	-8.5	1	3	1.5	nt
Cn1nccc1NC(=O)Nc1ccc(OC(F)(F)F)cc1	-3	3	-1.6	nt	nt	nt	4	-6	1.3	-6
Cc1ccc(-c2nnn(CC(=O)N(CC3CCCO3)C(C(=O)NC(C)(C)C)c3ccc(F)cc3)n2)o1 (centres undefined)	8	99*	0.0	nt	nt	nt	-2	1	-4.8	0
O=C(NCCOc1ccccc1)C1Nc2ccc(OC(F)(F)F)cc2C2C=CCC12 (centres undefined)	15	0	0.5	nt	nt	nt	-9	-1	1.8	-9
O=C(NCc1ccc(N2CCCC2=O)cc1)Nc1cccc2ccccc12	0	-7	-2.3	nt	nt	nt	-2	-2	0.1	-2
Cc1ccc(S(=O)(=O)N2CCN(S(=O)(=O)c3ccccc3)C2c2ccc(N(C)C)cc2)cc1 (centres undefined)	26	-3	-0.1	nt	nt	nt	4	3	2.9	13

Later entries:
SMILES	T cruzi inh	ALR inh	Bfl-1 A1 inh	Ecoli rRNA inh	Ecoli rRNA inh OD600	Ecoli rRNA inh RFP	B2AR ag	Beta apoptosis	LANA-H2B inh	Calb FLC
NC(=O)C(NC(=O)OCc1ccccc1)c1ccccc1 (centres undefined)	-5	6	0.9	4	13	1.5	-5	-3	4.7	1
Cn1c2ccccc2c2nnc(SCc3nnc(-c4ccccc4)o3)nc21	-4	2	0.2	nt	nt	nt	nt	3	3.0	-6
Cc1cccc(C)c1-n1c(=O)n(Cc2ccccc2)c(=O)c2[nH]cnc21	24	-3	0.3	-1	3	-1.2	4	-5	-1.3	-14
CCOc1ccc(N2CC(C(=O)Nc3ccc(S(=O)(=O)Nc4ncccn4)cc3)CC2=O)cc1 (centres undefined)	nt	5	0.8	nt	nt	nt	0	-8	1.4	nt
CN(C(=O)CSc1nnc(-c2ccccc2)n1C)C1CCS(=O)(=O)C1 (centres undefined)	-7	1	-0.4	15	7	7.2	-2	1	-0.5	6
COc1ccc2c(-c3ccccc3)cc(SCC(N)=O)nc2c1	-1	nt	0.0	0	-3	2.4	-37	-6	-3.4	22
CCOC(=O)CSc1nnc2c3ccccc3n(C)c2n1	-11	-2	1.6	6	3	0.1	-5	-7	-4.6	0
Cc1ccc(/C=C2/SC(=Nc3ccc(F)cc3)NC2=O)s1	-14	1	0.3	7	14	2.0	-1	-3	-5.4	-5
